Mtb hypoxia rep: Mtb hypoxia fluorescent reporter inhibition | M. tuberculosis hypoxia-regulated fluorescent reporter, fluorescence | fluorescence inhibition, % (concentration not given with the values) | 0.1% of 300,000 active | AID 1159583;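 active = 35 to 45% if threefold the growth effect, above 45% if 1.5-fold the growth effect; inactive = the rest, general growth blockers included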;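 also: wells of about 50 µL received 100 nL stock; 0% = vehicle wells and 100% = reference inhibitor wells; whole bacteria with a GFP reporter of the hypoxia response; strong numbers were not always called active; many hits fall short of the cut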
BJeLR viability: kills HRASV12-expressing BJeLR cells | BJeLR (HRASV12) viability, CellTiter-Glo ATP luminescence, 48 h; reference of the scale not given here | 0.17% of 300,000 active | inhibition, % (no concentration beside the values);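 active = replicate mean above 50%; inconclusive = above 50% but judged a plate artefact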;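 also: 50 nL library stock added to about 25 µL; numbers are from one replicate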
PrP 5UTR inh: suppresses PrP 5' UTR mRNA reporter expression | AID 488862 | 0.35% of 340,000 active | inhibition, % (test concentration not listed) | cell-based PrP 5' UTR mRNA reporter, plate reader;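 active = every replicate at 50% or more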;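 also: 0 = median of the neutral control wells; tested in H4 reporter cells; numbers are from one replicate; inactives centre near -14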
Sa ugtP lethal: compounds lethal to S. aureus RN4220 ugtP deletion mutant | 0.54% of 330,000 active | OD600 growth, 16 h; some inactives read as strong as hits | AID 1259309 | growth inhibition, % (concentration not given with the values);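 active = z-score under -3 and OD600 up to 0.15 on both plates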;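 also: plate controls were untreated wells for no effect and antibiotic for full effect; wells of about 80 µL received 100 nL stock; the first replicate is given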
RN4220 kill: S. aureus RN4220 growth inhibition | OD600, 16 h | inhibition, % (no concentration beside the values) | 0.33% of 330,000 active;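 active = z-score of -3 or lower and OD600 up to 0.18 on both plates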;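 also: plate controls were untreated cells for no effect and reference antibiotic for full effect; stock transfer was 100 nL into about 80 µL; one replicate is shown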
Bead autofluor: flagged as autofluorescent in microsphere protease counterscreen. compound autofluorescence counterscreen, microsphere flow cytometry; active compounds read high. fluorescence intensity (no concentration beside the values). 3.1% of 360,000 active;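 active = at least 3 SD above the mean of all compounds, about 16000 in these data; inconclusive = too few beads counted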;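 also: 100 nL of 1 mM stock went into each well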
Mtb hypoxia rep growth: second read-out of Mtb hypoxia rep, no call of its own (marks repeat the call); growth inhibition, %; measured here: M. tuberculosis growth (absorbance);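 0% = vehicle and 100% = reference antibiotic; read after six days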
* hit, by the source's call; ? = inconclusive; nt = no result given.

SMILES	Mtb hypoxia rep	Mtb hypoxia rep growth	BJeLR viability	PrP 5UTR inh	Sa ugtP lethal	RN4220 kill	Bead autofluor
Cc1cc(C)c2nc3c(c(C(=O)O)c2c1)CCC3	8	9	-3	-16	1	-1.1	9008
Cc1cccc2cc(CN(Cc3ccco3)C(=O)Nc3cccc(C#N)c3)c(Cl)nc12	-4	-1	-9	-7	1	-7.3	6311
COc1cc(CC(=O)N2CCN(S(=O)(=O)c3ccc(C)cc3)CC2)cc(OC)c1OC	-1	1	nt	-18	2	4.6	3526
CN(CCCC(=O)N1CCN(c2ncccn2)CC1)S(=O)(=O)c1ccc(F)cc1	7	3	nt	-25	7	3.4	6524
COc1cccc(NC(=O)CCCOc2cc(=O)n(C)c3ccccc23)c1	5	1	-4	-16	-2	1.3	4002
Cc1ccc(-n2nnnc2SCC(=O)N(CC(C)C)c2c(N)n(CC(C)C)c(=O)[nH]c2=O)cc1	-2	14	6	-2	2	12	4530
CN(C)S(=O)(=O)c1ccc(N2CCCC2)c(C(=O)Nc2ccccc2OC(F)F)c1	9	6	-17	-6	5	7.4	4089
CCOc1ccc(N2CC(C(=O)Nc3cccc(C(=O)NC4CC4)c3)CC2=O)cc1 (stereo unspecified)	-5	0	nt	-6	1	-0.5	6822
CN(CC(=O)N1CC=C(c2ccccc2)CC1)S(=O)(=O)c1cnc[nH]1	15	4	-1	-6	-3	-9.6	nt
O=C(Nc1nc(-c2ccccc2)cs1)C1CCCN(S(=O)(=O)c2cccc([N+](=O)[O-])c2)C1 (stereo unspecified)	1	1	-15	6	3	-7.0	3823
COc1ccc(NS(=O)(=O)c2ccc(N)c(C(=O)O)c2)cc1	15	11	1	-10	-3	-16	2783
CN(C)S(=O)(=O)c1cccc(NC(=S)NC23CC4CC(CC(C4)C2)C3)c1	2	6	-3	-30	-7	-12	4067
COCCN(Cc1cc2ccc(C)cc2[nH]c1=O)S(=O)(=O)c1ccccc1	13	9	-7	-18	5	5.8	5067
COc1cc2c(cc1NC(=S)Nc1cccc(C(F)(F)F)c1)oc1ccccc12	7	7	32	-29	65	52	9950
Cc1cccc(C)c1NC(=O)CNC(=O)C1COc2ccccc2O1 (stereo unspecified)	-1	5	nt	-10	2	0.4	?
COc1ccccc1-c1cc(C(F)(F)F)nc(N2CCN(c3ccc(F)cc3)CC2)n1	1	8	9	-13	23	-1.1	4305
CCC1(C)Cc2ccccc2-c2nc3n(c(=O)c21)CCS3 (stereo unspecified)	11	7	-9	-19	4	3.9	2240
CC(C)Oc1cccc(C(=O)NC(=S)Nc2cccnc2)c1	1	6	0	-43	-9	-2.4	2291
CCc1noc(C)c1C(=O)Nc1nc2ccc(F)cc2s1	2	-4	6	-81	-1	3.7	5586
CCN(CC)C(=O)c1cccc(NC(=O)c2cc(-c3ccccn3)nc3ccccc23)c1	-11	-2	nt	-15	2	4.9	4132
CN(Cc1cnn(-c2ccc(F)cc2)c1)Cc1nc(Cc2ccccc2)no1	8	1	0	6	4	6.5	4333
C[C@@H]1CC[C@H](O)/C=C/C(=O)O[C@H](C)CC[C@H](O)/C=C/C(=O)O1	nt	nt	-3	-25	nt	nt	6467
COc1ccc(N2C(=O)[C@@H]3Cc4ccccc4CN3C2=O)cc1	nt	nt	-3	-8	3	5.2	3762
CCOC(=O)c1cc(-c2ccccc2)nn1Cc1cc(C)no1	-2	8	7	-32	-5	8.7	4285
Cn1c(=O)c2c(nc(N3CCOCC3)n2CCc2ccccc2)n(C)c1=O	13	2	6	-29	4	2.3	3236

Next part:
SMILES	Mtb hypoxia rep	Mtb hypoxia rep growth	BJeLR viability	PrP 5UTR inh	Sa ugtP lethal	RN4220 kill	Bead autofluor
CN1C(=O)C2(OCCCO2)c2ccccc21	5	2	1	-16	5	3.7	4165
O=C(/C=C/c1ccc(Br)o1)OCc1ccccc1	nt	nt	6	-9	14	5.8	3277
O=C(OCn1nnc2ccccc2c1=O)C1COc2ccccc2O1 (stereo unspecified)	-4	-2	-1	-6	1	2.1	4034
O=C(NN=Cc1cn(-c2ccccc2)nc1-c1cccnc1)c1ccccc1	-4	9	nt	nt	-4	-1.8	nt
CCN1CCN(c2ccc(NC(=O)c3ccco3)cc2Cl)CC1	-2	-1	-11	-58	2	2.1	3513
CCOC(=O)c1ccc(NC(=S)NC(=O)COc2ccccc2)cc1	nt	nt	8	-34	25	-1.3	2547
Fc1c(F)c(F)c(N/N=C/c2c[nH]c3ccccc23)c(F)c1F	nt	nt	-3	-12	nt	nt	2203
Cc1ccc(NC(=O)Nn2cnnc2)cc1	6	-16	-1	-15	1	1.4	3884
CC(C)(C)C(O)C=Cc1ccc2c(c1)OCO2 (stereo unspecified)	-7	3	nt	nt	-4	7.5	nt
COc1ccc(C2N=C(N)N=C(N)N2c2ccccc2)cc1OC (stereo unspecified)	-1	-4	7	-23	-1	-0.3	8055
Oc1ccc(-c2nccc(-c3ccc(Cl)cc3Cl)n2)cc1	nt	nt	-3	-15	nt	nt	3499
O=C(NN=Cc1ccc(OC(F)F)cc1OC(F)F)c1ccc(Br)cc1	6	2	nt	nt	7	3.4	nt
O=C1c2ccccc2C(=O)N1CCCON1C(=O)c2ccccc2C1=O	3	0	0	-13	4	7.5	2311
N#CC1=C(N)OC2=C(C(=O)CCC2)C1c1ccc(OC(=O)N2CCOCC2)cc1 (stereo unspecified)	-2	-4	0	-20	-5	3.3	4397
CCc1ccc(OCC(=O)Nc2cc(S(=O)(=O)CC)ccc2O)cc1	1	3	-19	-20	11	5.1	17897*
CC(C)(C)c1ccc(/C=N/Nc2nncn2N)cc1	nt	nt	-5	-9	nt	nt	3495
CCOc1ccc(C(=O)Nn2cnnc2)cc1	10	6	0	-23	10	3.9	9906
Cc1cccc(C(=O)NNS(=O)(=O)c2ccc(F)cc2)c1O	1	-4	-4	10	-5	5.4	3814
O=C(CC1SC(N2CCCCC2)=NC1=O)Nc1cccc(C(=O)N2CCCC(C(F)(F)F)C2)c1 (stereo unspecified)	-5	7	nt	-10	-2	-4.4	3633
O=C(NC(N1CCCCCC1)C(Cl)(Cl)Cl)c1ccccc1Cl (stereo unspecified)	2	-3	5	1	-1	11	2465
O=C(NCc1ccco1)C1CCCN1C(=O)Nc1ccc(Br)cc1 (stereo unspecified)	7	2	-10	-42	13	0.7	3393
Clc1ccc(-n2nnc(-c3cccnc3Cl)n2)cc1Cl	-4	0	-1	-53	-6	-0.1	3268
COc1ccccc1NC(=O)CCCC(=O)OC(C)C(=O)c1ccccc1 (stereo unspecified)	-4	5	-6	0	3	1.1	3855
CCN1CCN(CCCN(Cc2ccco2)C(=S)Nc2ccc(C)c(Cl)c2)CC1	14	8	-5	9	3	-3.0	4360
O=C(C[n+]1ccc(-c2nnc3n2CCCCC3)cc1)c1ccc(Cl)cc1	-12	-4	9	-27	2	1.4	4715

(listing goes on)
SMILES	Mtb hypoxia rep	Mtb hypoxia rep growth	BJeLR viability	PrP 5UTR inh	Sa ugtP lethal	RN4220 kill	Bead autofluor
COc1ccc(C(=O)c2ccsc2N)cc1	12	11	-2	-9	-1	6.3	2880
CCOC(=O)C(=NCCCN(C)C)NNc1ccc(Br)cc1	10	5	5	-14	-1	3.0	2681
CCN(CC)S(=O)(=O)c1ccc(N2CC(C(=O)N3Cc4ccccc4CC3C(N)=O)CC2=O)cc1 (stereo unspecified)	3	9	nt	-17	-5	0.3	5536
CCOc1ccc2oc(C(=O)NNC(=O)c3ccccc3O)c(C)c2c1	4	4	12	-5	-4	6.2	5944
COC(=O)c1cc(NC(=O)c2ccc(-c3ccccc3)cc2)ccc1Cl	1	12	3	-18	-8	1.8	9005
O=C(NCCc1ccccc1)c1noc2c1CCc1ccccc1-2	3	10	-1	-3	30	-0.8	17456*
O=C(N/C=C/c1ccccc1)c1ccccc1	nt	nt	4	-41	nt	nt	4103
CCN(C(=O)CN1CC=C(c2ccccc2)CC1)c1c(N)n(Cc2ccccc2)c(=O)[nH]c1=O	-4	-7	-2	2	3	5.7	2384
Cc1ccccc1C1C(=O)c2ccccc2C1=O	11	5	-7	-12	4	2.5	3759
O=C1CC2c3c(cccc3CN1Cc1ccc(Cl)cc1)CC(O)C2O (stereo unspecified)	21	7	nt	nt	5	8.2	nt
Cc1nc(SCC(=O)Nc2nccs2)c(C#N)c(C)c1C	-7	-4	nt	71*	8	6.4	nt
CC(C)C1N=C(c2ccc3c(c2)OCO3)CC(c2ccccc2O)N1 (stereo unspecified)	11	8	3	-87	9	23	11422
Nc1nc2nccc(-c3ccco3)n2n1	-8	-4	-3	-35	12	6.2	4579
CC(C)(C)OC(=O)NCc1ccc(CNC(=O)c2[nH]cnc2C(=O)N[C@@H](Cc2ccccc2)C(=O)OC(C)(C)C)cc1	nt	nt	7	-12	nt	nt	3362
COc1ccc(CCNC(=O)NC23CC4CC(CC(C4)C2)C3)cc1OC	nt	nt	8	-7	3	-1.2	2698
CC(=O)OC1(C(C)=O)CCC2C3CC(C(F)(F)F)C4=CC(=O)CCC4(C)C3CCC21C (stereo unspecified)	15	9	nt	-12	1	4.4	4156
CC(=O)c1cccc(N(C(=O)c2ccccn2)C(C(=O)NC2CCCCC2)c2cccs2)c1 (stereo unspecified)	9	8	5	-17	-5	5.9	5258
Cc1ccccc1-n1c(=S)[nH]c2nc3c(cc2c1=O)CCCC3	-6	3	4	-10	-7	1.6	4404
Cc1ccc(S(=O)(=O)N2CCCC(C(=O)NCCC3=CCCCC3)C2)cc1 (stereo unspecified)	0	4	5	-8	-7	1.3	21132*
CCNC(=S)N/N=C(\C)c1ccc2c(c1)OCCO2	nt	nt	0	-19	nt	nt	2090
CN1C[C@@H]2C(c3ccc(C(F)(F)F)cc3)C3(c4ccccc4)CC2(C3)[C@H]1c1ccccc1 (stereo partly specified)	nt	nt	4	-30	nt	nt	3671
COc1cccc(N(CC(=O)NCCSCc2ccc(Cl)cc2)S(C)(=O)=O)c1	-6	-3	-9	-4	-4	-5.1	3758
CCc1ccc(OCC(=O)NC2CC(C)(C)NC(C)(C)C2)cc1	-1	2	4	-54	4	6.9	4608
CC(=O)Nc1ccc(OCCOc2ccc(NC(C)=O)cc2)cc1	3	13	2	0	-1	3.1	3946
CN(Cc1cccs1)C(=O)CSc1nc(N)cc(N)n1	13	19	-6	1	6	16	4469

Remaining list, next part:
SMILES	Mtb hypoxia rep	Mtb hypoxia rep growth	BJeLR viability	PrP 5UTR inh	Sa ugtP lethal	RN4220 kill	Bead autofluor
CCn1cc(CNCc2cn[nH]c2-c2cc3ccccc3o2)cn1	6	10	-1	-3	4	2.5	4383
COc1ccc2c(C)cc(N3CCN(c4ccc(F)cc4)CC3)nc2c1	-13	-13	-8	-39	3	-1.1	11092
COc1ccc(-c2c3c(nc4sc5c(Cl)nc(C)nc5c24)CCC3)cc1	-2	6	1	-1	-1	-2.1	3144
CCC(C)NCCCOc1ccc(Cl)cc1C(C)(C)C (stereo unspecified)	7	7	-9	-28	0	1.3	2042
COc1cc(C(=O)NCC(=O)N2CCN(S(=O)(=O)c3cc(C)ccc3C)CC2)cc(OC)c1OC	3	2	27	-7	2	-0.3	?
Cc1cc(=O)oc2cc(OCC(=O)OCC(=O)Nc3ccc(C(N)=O)cc3)ccc12	-10	-12	9	-15	10	2.2	4474
Cc1c(OCC(=O)NCC2CCC(C(=O)O)CC2)ccc2c3c(c(=O)oc12)CCC3 (stereo unspecified)	nt	nt	-4	-5	-3	-0.6	5550
Cc1ccc(C(=O)NNC(=O)c2cccc(S(=O)(=O)N3CCOCC3)c2)cc1	24	16	nt	-21	-4	3.6	3878
CCCCCCn1c(N)c(C(=O)NCCN2CCOCC2)c2nc3ccccc3nc21	nt	nt	1	-56	nt	nt	3310
O=C1NCCCc2nc(Oc3ccccc3)sc21	0	4	-3	-6	0	5.5	2579
Cc1nc2c(-c3ccc(Cl)cc3)cnn2c(N)c1-c1ccc(F)cc1	16	13	-3	56*	11	-8.0	3661

Four compounds from above, sorted by molecular weight, largest number first:
SMILES	Mtb hypoxia rep	Mtb hypoxia rep growth	BJeLR viability	PrP 5UTR inh	Sa ugtP lethal	RN4220 kill	Bead autofluor
CCCCCCn1c(N)c(C(=O)NCCN2CCOCC2)c2nc3ccccc3nc21	nt	nt	1	-56	nt	nt	3310
Cc1cc(=O)oc2cc(OCC(=O)OCC(=O)Nc3ccc(C(N)=O)cc3)ccc12	-10	-12	9	-15	10	2.2	4474
Cc1ccc(C(=O)NNC(=O)c2cccc(S(=O)(=O)N3CCOCC3)c2)cc1	24	16	nt	-21	-4	3.6	3878
O=C1NCCCc2nc(Oc3ccccc3)sc21	0	4	-3	-6	0	5.5	2579

High-throughput results from PubChem BioAssay.
